Screens from PubChem.
HIV Env fusion: HIV envelope-mediated fusion inhibition | HeLa-JRFL Env/CEM21 cell fusion, luciferase | inhibition, % at 12.3 µM | hit rate 1.1% among 360,000;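 active means mean replicate inhibition score of at least 50 and every replicate individually at or above 50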;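 further: 0% = plate neutral controls and 100% = maraviroc near 300 nM; one replicate is shown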
UUG fidelity: alters start codon recognition fidelity in yeast; hit rate 0.13% among 350,000; activity score, % at 18.7 µM; S. cerevisiae UUG-firefly luciferase reporter, luminescence/redox ratio; AID 602363;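 active means replicate mean at a twofold rise or more, about +100% in these data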;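 further: firefly luciferase made from a UUG start codon reports start codon fidelity; reporter light over untreated wells divided by growth signal over untreated wells; some hits fall short of that in this replicate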
* marks the source's active call; other numbers are inactive results; [ ] = remark or other dose.

HIV Env fusion | UUG fidelity | smiles
-7.1[16.7 µM] | -9.9 | O=C(N[C@@H]1CC[C@H](CCNC(=O)C2CCCC2)O[C@@H]1CO)c1ccncc1
-4.3[16.7 µM] | -5.0 | Cc1noc(C)c1S(=O)(=O)N(C)C[C@H]1Oc2ccc(NC(=O)CCCN(C)C)cc2C(=O)N([C@@H](C)CO)C[C@H]1C
-32.0[16.7 µM] | 0.3 | C[C@@H]1CN([C@H](C)CO)C(=O)c2cc(NS(=O)(=O)c3ccc(Cl)cc3)ccc2O[C@@H](C)CCCCO[C@@H]1CN(C)S(=O)(=O)c1cn(C)cn1
14.4[16.7 µM] | 1.0 | C[C@H](CO)N1C[C@H](C)[C@H](CN(C)C(=O)c2ccccc2)Oc2ncc(/C=C/c3ccccc3)cc2C1=O
5.0[16.7 µM] | -11.6 | O=C(NCC[C@@H]1CC[C@@H](NC(=O)C2CCOCC2)[C@H](CO)O1)c1ccc(F)cc1
-5.1[16.7 µM] | -7.4 | Cc1ccc(S(=O)(=O)Nc2cccc3c2O[C@@H](CN(C)CC2CC2)[C@H](C)CN([C@@H](C)CO)C3=O)cc1
0.9[16.7 µM] | 2.7 | CNC[C@@H]1OCCCC[C@@H](C)Oc2ccc(NC(=O)Nc3ccccc3)cc2C(=O)N([C@@H](C)CO)C[C@H]1C
46.0[16.7 µM] | 3.4 | Cc1noc(C)c1S(=O)(=O)Nc1ccc2c(c1)CC(=O)N([C@@H](C)CO)C[C@@H](C)[C@H](CN(C)CC1CCCCC1)O2
-4.9[16.7 µM] | 0.6 | COc1ccc(S(=O)(=O)Nc2cccc3c2O[C@H](CN(C)C(=O)NC(C)C)[C@H](C)CN([C@@H](C)CO)C3=O)cc1
19.4[16.7 µM] | -24.0 | CCCNC(=O)C[C@@H]1CC[C@H]2[C@@H](COc3ccc(NC(=O)c4cc(F)cc(F)c4)cc3C(=O)N2C)O1
0.4[16.7 µM] | -0.4 | COc1ccc(CN(C)C[C@H]2OCCCC[C@@H](C)Oc3ccc(NC(=O)c4ccncc4)cc3C(=O)N([C@H](C)CO)C[C@@H]2C)cc1
16.2[16.7 µM] | 0.9 | CCCNC(=O)Nc1ccc2c(c1)OC[C@H](C)NC[C@@H](C)[C@H](OC)CN(C)C2=O
7.5[16.7 µM] | -11.9 | COC(=O)CCCCCCC(=O)Nc1ccc(C2OC(CSc3nc(-c4ccccc4)c(-c4ccccc4)o3)CC(c3ccc([N+](=O)[O-])cc3)O2)cc1 (stereo not given)
25.1[16.7 µM] | -6.6 | COc1ccc(CN(C)C[C@@H]2Oc3ccc(NC(=O)Nc4cccc5ccccc45)cc3C(=O)N([C@@H](C)CO)C[C@@H]2C)cc1
13.7[16.7 µM] | -15.2 | [N-]=[N+]=Nc1ccccc1C[C@@]1(C(=O)N2CCCCC2)N=C(c2ccc(OCCCO)cc2)O[C@@H]1c1ccccc1
-33.8[16.7 µM] | -11.4 | COc1ccc(NC(=O)Nc2ccc3c(c2)C(=O)N([C@H](C)CO)C[C@H](C)[C@H](CN(C)C(=O)Nc2ccc(F)cc2)OCCCC[C@H](C)O3)cc1

One compound at a time, as listed above.
`COC(=O)CCCCCCC(=O)Nc1ccc(C2OC(CSc3nc(-c4ccccc4)c(-c4ccccc4)o3)CC(c3ccc([N+](=O)[O-])cc3)O2)cc1` (stereo not given) is listed with HIV Env fusion = 7.5[16.7 µM]; UUG fidelity = -11.9
`CCCNC(=O)C[C@@H]1CC[C@H]2[C@@H](COc3ccc(NC(=O)c4cc(F)cc(F)c4)cc3C(=O)N2C)O1` is listed with HIV Env fusion = 19.4[16.7 µM]; UUG fidelity = -24.0

Next compounds:
HIV Env fusion | UUG fidelity | smiles
-3.8[16.7 µM] | 7.4 | C=CC[C@]1(C(=O)N(C)C)COC(c2ccc(OCCCO)cc2)=N1
-2.1[16.7 µM] | -1.1 | Cc1noc(C)c1NC(=O)Nc1cccc2c1O[C@@H](CN(C)S(C)(=O)=O)[C@H](C)CN([C@H](C)CO)C2=O
-25.1[16.7 µM] | 39.3* | COCc1cn(CC[C@@H]2CC[C@H](NC(=O)CCN3CCCCC3)[C@@H](CO)O2)nn1
16.7[16.7 µM] | 6.6 | COCC(=O)N(C)C[C@H]1Oc2ncc(C#CCC3CCCC3)cc2C(=O)N([C@H](C)CO)C[C@H]1C
3.6[16.7 µM] | 28.2 | COc1ccc(S(=O)(=O)N[C@H]2CC[C@@H](CCn3cc(-c4ccccc4F)nn3)O[C@H]2CO)cc1
-0.6[16.7 µM] | -10.5 | Cc1noc(C)c1NC(=O)N(C)C[C@@H]1Oc2ccc(NS(=O)(=O)c3ccc(Cl)cc3)cc2C(=O)N([C@@H](C)CO)C[C@@H]1C
5.0[16.7 µM] | -0.3 | C[C@H]1CN([C@@H](C)CO)S(=O)(=O)c2ccc(-c3ccccc3)cc2O[C@@H]1CN(C)C(=O)c1ccccc1F
-30.4[16.7 µM] | 4.6 | CC(=O)N(C)C[C@H]1Oc2cc(C#CC3CCCC3)ccc2S(=O)(=O)N([C@@H](C)CO)C[C@@H]1C
2.1[16.7 µM] | -1.0 | C[C@H](O)C#Cc1ccc2c(c1)O[C@@H](CN(C)Cc1ccccc1)[C@H](C)CN([C@@H](C)CO)S2(=O)=O
-15.0[16.7 µM] | -33.1 | CCCC#Cc1ccc2c(c1)O[C@H](CN(C)C(=O)c1ccccc1F)[C@@H](C)CN([C@@H](C)CO)S2(=O)=O
-1.9[16.7 µM] | -0.8 | C[C@H]1CN([C@@H](C)CO)C(=O)c2cc(-c3ccccc3)cnc2O[C@H]1CN(C)C(=O)NC1CCCC1
-15.2[16.7 µM] | -0.5 | Cc1noc(C)c1NC(=O)Nc1ccc2c(c1)CC(=O)N([C@@H](C)CO)C[C@H](C)[C@@H](CN(C)C(=O)Nc1ccc(C(F)(F)F)cc1)O2
-8.9[16.7 µM] | 0.6 | CO[C@@H]1CN(C)C(=O)c2ccc(NC(=O)C3CCC3)cc2OC[C@@H](C)N(C(=O)NC(C)C)C[C@@H]1C
10.9[16.7 µM] | 18.5 | C[C@@H]1CCCCO[C@@H](CN(C)C(=O)Cc2ccccc2)[C@@H](C)CN([C@@H](C)CO)C(=O)c2cc(NS(=O)(=O)c3ccccc3)ccc2O1
-4.3[16.7 µM] | 3.9 | Cc1ccc(S(=O)(=O)N(C)C[C@H]2OCCCC[C@@H](C)Oc3ccc(NC(=O)NC(C)C)cc3C(=O)N([C@@H](C)CO)C[C@@H]2C)cc1
2.2[16.7 µM] | -7.4 | C[C@H]1CN([C@@H](C)CO)C(=O)c2cc(-c3cccc(C#N)c3)cnc2O[C@H]1CN(C)Cc1ccncc1

Random excerpt: 2 records from the list, in no set order.
HIV Env fusion | UUG fidelity | smiles
-4.3[16.7 µM] | 3.9 | Cc1ccc(S(=O)(=O)N(C)C[C@H]2OCCCC[C@@H](C)Oc3ccc(NC(=O)NC(C)C)cc3C(=O)N([C@@H](C)CO)C[C@@H]2C)cc1
-1.9[16.7 µM] | -0.8 | C[C@H]1CN([C@@H](C)CO)C(=O)c2cc(-c3ccccc3)cnc2O[C@H]1CN(C)C(=O)NC1CCCC1

(next part)
HIV Env fusion | UUG fidelity | smiles
10.6[16.7 µM] | -13.5 | COc1ccc(S(=O)(=O)Nc2ccc3c(c2)C(=O)N([C@@H](C)CO)C[C@@H](C)[C@@H](CN(C)C(=O)NC(C)C)O3)cc1
-7.2[16.7 µM] | 5.3 | C[C@@H]1CN([C@@H](C)CO)C(=O)c2cccc(NC(=O)Nc3ccc(C(F)(F)F)cc3)c2O[C@@H]1CN(C)C(=O)Nc1ccccc1
12.5[16.7 µM] | 0.2 | COCCNC(=O)C[C@@H]1C[C@H]2c3cc(NS(=O)(=O)c4ccc(F)cc4)ccc3O[C@H]2[C@H](CO)O1
77.4*[16.7 µM] | 2.5 | Cc1ccc(S(=O)(=O)N(C)C[C@H]2Oc3ncc(Br)cc3C(=O)N([C@@H](C)CO)C[C@@H]2C)cc1
-23.9[16.7 µM] | -3.2 | CNC[C@H]1Oc2c(NC(=O)c3ccncc3)cccc2C(=O)N([C@H](C)CO)C[C@@H]1C
1.8[16.7 µM] | 29.1 | Cc1ccc(S(=O)(=O)Nc2ccc3c(c2)C(=O)N([C@@H](C)CO)C[C@@H](C)[C@@H](CN(C)C(=O)Nc2ccccc2)OCCCC[C@H](C)O3)cc1
-22.2[16.7 µM] | -5.9 | CC(C)NC(=O)NCC[C@@H]1CC[C@@H](NC(=O)c2ccc(F)cc2)[C@H](CO)O1
-37.3[16.7 µM] | -21.9 | C[C@H](CO)N1C[C@H](C)[C@@H](CN(C)S(=O)(=O)c2cn(C)cn2)Oc2ccc(NC(=O)Cn3cnnn3)cc2CC1=O
30.0[16.7 µM] | -12.5 | Cc1ccccc1S(=O)(=O)N1[C@H](C#N)[C@H](c2ccc(-c3ccccc3)cc2)[C@@H]1CO
-7.3[16.7 µM] | -5.2 | C[C@@H]1CN([C@@H](C)CO)C(=O)c2cc(NS(=O)(=O)c3ccc(Cl)cc3)ccc2O[C@@H](C)CCCCO[C@@H]1CN(C)S(=O)(=O)c1ccccc1
5.1[16.7 µM] | -18.4 | CCCNC(=O)Nc1ccc2c(c1)OC[C@@H](C)N(CCC)C[C@H](C)[C@@H](OC)CN(C)C2=O
-0.6[16.7 µM] | 90.0 | C[C@@H]1CN([C@@H](C)CO)C(=O)c2cc(-c3cccc(C#N)c3)cnc2O[C@@H]1CN(C)C(=O)c1cnccn1
7.1[16.7 µM] | -0.4 | C[C@@H]1CCCCO[C@@H](CN(C)C(=O)c2ccccc2)[C@@H](C)CN([C@@H](C)CO)C(=O)c2cc(NC(=O)Nc3ccc(F)cc3)ccc2O1
-4.0[16.7 µM] | -5.5 | COc1ccc(NC(=O)N(C)C[C@H]2OCCCC[C@@H](C)Oc3ccc(NC(=O)Nc4ccc(C(F)(F)F)cc4)cc3C(=O)N([C@H](C)CO)C[C@H]2C)cc1
-21.4[16.7 µM] | -9.8 | O=C(Nc1ccc2c(c1)[C@@H]1C[C@@H](CC(=O)N3CCOCC3)O[C@H](CO)[C@@H]1O2)NC1CCCCC1
-0.6[16.7 µM] | 12.8 | C[C@@H]1CN([C@H](C)CO)C(=O)c2cc(N(C)C)ccc2O[C@@H](C)CCCCO[C@@H]1CN(C)C(=O)CCCN(C)C
3.1[16.7 µM] | 13.3 | C[C@@H]1CN([C@@H](C)CO)C(=O)c2cc(NC(=O)C3CCCCC3)ccc2O[C@@H]1CN(C)Cc1ccc(C(F)(F)F)cc1
-6.3[16.7 µM] | 6.2 | COc1ccc(S(=O)(=O)Nc2ccc3c(c2)C(=O)N([C@@H](C)CO)C[C@H](C)[C@@H](CN(C)S(=O)(=O)c2ccc(C)cc2)OCCCC[C@H](C)O3)cc1
-40.4[16.7 µM] | -25.2 | Cc1noc(C)c1S(=O)(=O)Nc1ccc2c(c1)C(=O)N([C@@H](C)CO)C[C@@H](C)[C@@H](CN(C)S(=O)(=O)c1ccc(Cl)cc1)OCCCC[C@H](C)O2
13.7[16.7 µM] | 1.4 | C[C@@H]1CN([C@@H](C)CO)C(=O)c2cc(-c3ccc(F)cc3)cnc2O[C@@H]1CN(C)C(=O)c1ccc(F)cc1
2.7[16.7 µM] | 6.4 | O=C(C[C@H]1CC[C@H]2[C@@H](COC[C@@H](O)CN2C(=O)Nc2ccc(Cl)c(Cl)c2)O1)NC1CCC1
-13.8[16.7 µM] | 12.9 | C[C@H](O)C#Cc1cnc2c(c1)C(=O)N([C@@H](C)CO)C[C@@H](C)[C@H](CN(C)C(=O)Nc1ccc(C(F)(F)F)cc1)O2
-16.0[16.7 µM] | 6.9 | CC(C)CC#Cc1ccc2c(c1)O[C@@H](CN(C)Cc1ccc(F)cc1)[C@H](C)CN([C@@H](C)CO)S2(=O)=O
-4.4[16.7 µM] | 18.7 | C[C@H]1CN([C@@H](C)CO)C(=O)c2cc(-c3cncnc3)cnc2O[C@H]1CN(C)C(=O)c1ccccc1F
-11.6[16.7 µM] | 0.4 | COc1ccc(NC(=O)Nc2ccc3c(c2)C(=O)N([C@@H](C)CO)C[C@H](C)[C@@H](CN(C)S(=O)(=O)c2ccc(OC)cc2)OCCCC[C@H](C)O3)cc1
-14.5[16.7 µM] | 9.8 | C[C@@H]1CCCCO[C@@H](CN(C)C(=O)CCC(F)(F)F)[C@@H](C)CN([C@@H](C)CO)C(=O)c2cc(NC(=O)CCC(F)(F)F)ccc2O1
25.7[16.7 µM] | 5.1 | COc1ccc(NC(=O)N[C@@H]2CC[C@H](CCn3cc(-c4ccc(OC)cc4)nn3)O[C@H]2CO)cc1
-7.2[16.7 µM] | 4.9 | Cc1noc(C)c1S(=O)(=O)Nc1ccc2c(c1)C(=O)N([C@H](C)CO)C[C@@H](C)[C@H](CN(C)C(=O)c1ccncc1)OCCCC[C@@H](C)O2
8.5[16.7 µM] | -6.9 | C[C@@H]1CN([C@H](C)CO)S(=O)(=O)c2ccc(C3=CCCC3)cc2O[C@H]1CN(C)C(=O)c1cccnc1
-6.1[16.7 µM] | -4.0 | COc1ccc(S(=O)(=O)Nc2ccc3c(c2)C(=O)N([C@@H](C)CO)C[C@@H](C)[C@@H](CN(C)S(=O)(=O)c2ccc(Cl)cc2)O3)cc1
6.4[16.7 µM] | -16.5 | C[C@@H](NC(=O)C[C@@H]1CC[C@@H]2[C@H](COC[C@H](O)CN2C)O1)c1ccccc1
-3.5[16.7 µM] | -34.6 | Cc1noc(C)c1NC(=O)N(C)C[C@@H]1Oc2ccc(NS(C)(=O)=O)cc2CC(=O)N([C@@H](C)CO)C[C@H]1C
-15.3[16.7 µM] | -13.3 | C[C@@H]1CN([C@H](C)CO)C(=O)c2cccc(NC(=O)Nc3ccc(F)cc3)c2O[C@H]1CN(C)Cc1ccc(-c2ccccc2)cc1
-11.2[16.7 µM] | 16.0 | C[C@@H]1CCCCO[C@H](CN(C)Cc2ccccc2)[C@@H](C)CN([C@@H](C)CO)C(=O)c2cc(NC(=O)CCCN(C)C)ccc2O1
10.6[16.7 µM] | 2.3 | COc1cccc(NC(=O)N(C)C[C@H]2Oc3ncc(C4=CCCCC4)cc3C(=O)N([C@H](C)CO)C[C@H]2C)c1

These rows are one share of the data; rates above refer to the full screens.
